# HSD17B inh: qHTS Assay for Inhibitors of HSD17B4, hydroxysteroid (17-beta) dehydrogenase 4; Potency, µM (highest dose often 57.1 µM), without a hit: at the top dose activity change, negative = inhibition, most hits filed as inhibitors; actives 7.6% (n = 75,000); 3-hydroxyacyl-CoA dehydrogenase type-2 (Homo sapiens), Q99714; recombinant HSD17B10, NADH fluorescence kinetic; many of its hits are not listed in these tables; active means well fitted inhibition curve with a large enough effect; inconclusive means small, poorly fitted or top-dose-only effect; inactive means no such curve, though single readings can be large or run the other way;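 further: the protocol describes HADH2 (HSD17B10) and not the HSD17B4 of the title; nearly all actives have a fitted effect of over 70% in size; most hits overshoot -100% by far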
#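 20 nM HADH2, pH 9.0 Tris/Tween; cpd preinc 15 min RT; start w/ 1 mM NAD+ + 90 uM b-hydroxybutyryl-CoA; kinetic fluor ex360/em450 q30s x 4 min; delta last-first.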
# * = called active by the depositor; ? = inconclusive; & = joins results of further samples; [ ] = dose if it differs, or a comment. On the % scale 0 is the no-effect control and ±100 the full control effect; potency means the concentration at half of the fitted maximal effect. Only part of the results is shown; the hit share may differ from the screen's.
Structure	HSD17B inh
CCOC(=O)c1sc(NCC2CCCO2)nc1C (stereo not drawn)	-18%
Cn1c(=O)c2c(nc(OCc3cccnc3)n2Cc2c(F)cccc2Cl)n(C)c1=O	5%
CCOC(=O)c1ccc(NC(=O)c2ccc(C)c(S(=O)(=O)N3CCOCC3)c2)cc1	?
COc1ccc(N2C(=O)CC(N3CCN(c4ccccc4F)CC3)C2=O)cc1 (stereo not drawn)	-1%
CCn1c(=O)c2c3c(sc2n(C)c1=O)CCC3	-1%
COc1cccc(C(c2sc3ncnn3c2O)N2CC(C)OC(C)C2)c1 (stereo not drawn)	?
CC(=O)OC1C[C@]2(C)[C@@H](CC(O)C3[C@]4(C)CCC(O)C(C)[C@@H]4CC[C@]32C)/C1=C(/CCC=C(C)C)C(=O)O (stereo partly drawn)	8%
O=C(CSc1nc2ccccc2c(=O)n1Cc1ccco1)NCc1ccco1	-2%
COc1ccc2[nH]c(=O)c(CN(CC3CCCO3)C(=O)Nc3ccccc3)cc2c1 (stereo not drawn)	25µM*
CC1CCCCN1CCCNC(=O)C1CCN(c2nc3ccccc3o2)CC1 (stereo not drawn)	1%
Cc1cnc(C)c(N2CCC(C(=O)NCc3cccs3)CC2)n1	-3%
CC(C)(C)C(=O)/C=C(\N)c1ccccn1	3%
Cc1nc2ncnn2c(N2CCN(C(=O)Cc3cccs3)CC2)c1C	-11%
CCOc1ccc(/C(O)=C2/C(=O)C(=O)N(CCOCCO)C2c2ccccc2)cc1 (stereo not drawn)	-18%
CCOC(=O)N1CCN(CC(=O)Nc2c(C(=O)OC)[nH]c3ccccc23)CC1	?
COCCn1c(C)cc(C(=O)CSc2ccc(NC(C)=O)cc2)c1C	-5%
Cc1cc(NC(=O)c2cc(C)on2)n(-c2ccccc2)n1	4%
CC(=O)OCc1ccco1	2%
CC(N)CCCC(C)(C)O (stereo not drawn)	-4%
CCC(=O)Nc1nc2ccc(NC(C)=O)cc2s1	4%
CC1CN(Cc2nc3c(c(=O)n(C)c(=O)n3C)n2CCCc2ccccc2)CC(C)O1 (stereo not drawn)	-7%
O=C(COc1ccccc1)NCCc1nc2ccccc2[nH]1	7%
CCOc1ccccc1NC(=O)C1CCN(S(=O)(=O)c2c(C)noc2C)CC1	-2%
COC(=O)c1ccccc1NC(=O)CN1CCC(NC(=O)c2ccccc2C)CC1	3%
N#Cc1ccc(COC(=O)c2ccc3c(=O)[nH]c(CN4CCOCC4)nc3c2)cc1	-7%

# (cont.)
Structure	HSD17B inh
CCN(CC)S(=O)(=O)c1ccc2[nH]cc(C(=O)NCCN3CCCCC3C)c(=O)c2c1 (stereo not drawn)	32µM*
N#Cc1c(-c2ccco2)cc(C2CC2)nc1SCC(=O)c1ccccc1	25µM*
Cc1cc(=O)[nH]c(SCc2nc3ncccn3c2Br)n1	32µM*
C=CCn1c(SCC(=O)Nc2cc(NC(C)=O)ccc2OC)nnc1-c1cccnc1	-8%
CCOC(=O)N1CCN(C(=O)C2CCN(c3ncnc4c3sc3cccc(F)c34)CC2)CC1	?
Cc1oc2cc(OC(C)C(=O)O)ccc2c(=O)c1Oc1ccccc1 (stereo not drawn)	13%
COc1ccc(-n2c(Cc3cccn3C)nnc2SCC(=O)Nc2ccc(F)cc2)cc1	1%
CCOC(=O)c1cc(-c2ccc(C)cc2)n(CC(=O)NCc2ccco2)c1C	8%
COC(=O)[C@@H]1C[C@H]1[C@@H](NS(=O)(=O)c1ccccc1)c1ccccc1	0%
CCn1c(=O)c(=O)[nH]c2cc(C(=O)Nc3ccc(S(=O)(=O)N4CCCC4)cc3)ccc21	42%[activator]
c1cncc(C2Nc3ccccc3-c3nc4ccccc4n32)c1 (stereo not drawn)	25µM*
COc1cccc(-c2cc(C(=O)Nc3c(C)nn(Cc4ccccc4)c3C)no2)c1	1%
C[C@@H]1O[C@@H](O)[C@@H](O)[C@H](O)[C@H]1O	-2%[11.4 µM]
CCOC(=O)CNC(=O)CN1CCCN(S(=O)(=O)c2ccc(Br)s2)CC1	3%
O=C(NCc1ccco1)C12CC3CC(C1)CC(C(=O)NCc1ccco1)(C3)C2	2%
Cc1ccccc1CN1CCN(CC(=O)NCc2ccc3c(c2)OCO3)C1=O	-5%
O=S(=O)(c1ccc2nc(COc3ccccc3)[nH]c2c1)N1CCOCC1	3%
Cn1cccc1C(=O)N1CCC2(CCCN(C(=O)Nc3cccc(C#N)c3)C2)CC1	8%
CC(=O)c1ccccc1OCC(O)CN1CCN(C(c2ccccc2)c2ccccc2)CC1 (stereo not drawn)	11%
Cc1ccc(Nc2nc(N)nc(CN3CCN(c4ccccc4)CC3)n2)cc1Cl	-5%
CCOC(=O)c1c(C)c(C(=O)Nc2ccccc2)c(C)n1CC	5%
O=C(NC1CCCCC1)C(c1ccncc1)N(CC1CCCO1)C(=O)C(F)(F)F (stereo not drawn)	-5%
O=S(=O)(NCc1ccncc1)c1ccc(S(=O)(=O)NCC2CCCO2)cc1 (stereo not drawn)	3%
O=C1CC(C(=O)N(CC2CCCO2)C(C(=O)NC2CCCCC2)c2ccncc2)CS1 (stereo not drawn)	1%
CC[C@H](CN(C)C)C(=O)c1ccco1	5%[11.4 µM]

# (next part)
Structure	HSD17B inh
COCCCNC(=O)CN(c1cccc(Cl)c1C)S(C)(=O)=O	3%
CC[C@@H](c1ccccc1)n1c(=O)n2n(c1=O)[C@H]1[C@H](O)[C@H]3O[C@@H]3/C(=N/OCc3ccccc3)[C@@H]1CC2	6%[11.4 µM]
CCOC(=O)N/N=C1/C[C@@H](O)[C@@H](O)[C@@H]2[C@@H]3C(=O)N(C(C)(C)C)C(=O)[C@H]3CC[C@H]12	2%[11.4 µM]
Cc1nnc(NC(=O)CN2C(=O)c3ccccc3S2(=O)=O)s1	-5%
CCn1c(SCC(=O)c2ccccc2)nnc1-c1cnccn1	-8%
CCc1ccccc1N(CC(=O)O)S(C)(=O)=O	-5%
COc1ccccc1N1CCN(CC(=O)Nc2cc(C)nn2-c2nc(C)cc(C)n2)CC1	-3%
c1ccc(-c2noc(-c3ccncc3)n2)nc1	3%
COc1ccc(N=[N+]([O-])c2ccc(OC)cc2)cc1	4%
Cc1nc2c(ccc3nc(NC(=O)c4ccc5c(c4)OCCO5)sc32)s1	?
Brc1ccc(-c2nc(-c3cccnc3)no2)o1	-5%
CCCC1(C(=O)OC)NC(c2ccco2)C2C(=O)N(c3ccc(C)cc3)C(=O)C21 (stereo not drawn)	-1%
Cc1ccc(S(=O)(=O)N2CCCCC2)cc1C(=O)c1nccn1C	4%
c1cc(-c2nnc3n2CCC3)[nH]n1	12%
CCN(CC)CCNC(=O)c1ccc(Cc2nc3ccccc3[nH]2)cc1	3%
Cc1cccc2sc(NC(=O)CN(C)S(=O)(=O)c3cccs3)nc12	-9%
COc1ccc(N2CCN(C(=O)Cn3c(=O)[nH]c4ccsc4c3=O)CC2)cc1	-7%
C[C@@]12CC[C@@H]3[C@H](CCC4=CC(=O)CC[C@]43C)[C@@H]1CC[C@@H]2C(=O)COS(=O)(=O)c1ccc(Br)cc1	3.2µM*
O=c1nc(N2CCOCC2)ccn1Cc1ccc(Br)cc1	12%
CCCc1cc(=O)[nH]c(SCc2ccc(C#N)cc2)n1	1%
COCCn1c(SCC(=O)N2CCCc3ccccc32)nnc1-c1ccco1	6%
CN(C)C(=O)c1ccc(-c2cncnc2NC2CCNCC2)cc1	?
O=C(CCn1c(=O)sc2ccccc21)NCc1cccs1	-4%
CCc1c(C)nc(SC)n(CC#N)c1=O	9%
O=C(Cc1coc2cc3c(cc12)CCC3)OCc1cc(=O)n2c(n1)sc1ccccc12	25µM*

# Laid out differently: entries from further up
C[C@@]12CC[C@@H]3[C@H](CCC4=CC(=O)CC[C@]43C)[C@@H]1CC[C@@H]2C(=O)COS(=O)(=O)c1ccc(Br)cc1
  HSD17B inh = 3.2µM*

O=C(CCn1c(=O)sc2ccccc21)NCc1cccs1
  HSD17B inh = -4%

Cc1cccc2sc(NC(=O)CN(C)S(=O)(=O)c3cccs3)nc12
  HSD17B inh = -9%

# Four entries from above, with each value named:
Brc1ccc(-c2nc(-c3cccnc3)no2)o1
  HSD17B inh = -5%

CCCC1(C(=O)OC)NC(c2ccco2)C2C(=O)N(c3ccc(C)cc3)C(=O)C21 (stereo not drawn)
  HSD17B inh = -1%

Cc1ccc(S(=O)(=O)N2CCCCC2)cc1C(=O)c1nccn1C
  HSD17B inh = 4%

c1cc(-c2nnc3n2CCC3)[nH]n1
  HSD17B inh = 12%

# (further entries)
SMILES	HSD17B inh
COc1ccc(-c2cc(-n3c(C(F)(F)F)nc4ccccc43)n(CCC#N)n2)cc1	-7%
Nc1c(C(=O)NCc2ccco2)sc2nc3c(cc12)C(=O)CCC3	-17%
Oc1ccccc1C(Sc1nc2ccccc2s1)Sc1nc2ccccc2s1	?
COCCN1C(=O)N(c2cccc(C)c2)C(=O)C1CC(=O)Nc1ccc(F)cc1 (stereo not drawn)	-29%
COc1ccccc1CCn1c(=O)c(CCc2ccccc2)nc2cncnc21	1%
CCCN1CC23C=CC(O2)C(C(=O)O)C3C1=O (stereo not drawn)	12%
N[C@@H](CCCCO)C(=O)O	5%[11.4 µM]
Cc1ccc(N(C(=O)C2CCCO2)C2C=CS(=O)(=O)C2)cc1Cl (stereo not drawn)	-10%
CCn1c(SCC(=O)Nc2ccc3c(c2)c2ccccc2n3CC)nnc1-c1cnccn1	170%[activator]
CCCCn1c(CN2CCN(c3ccccc3)CC2)nc2c1c(=O)n(C)c(=O)n2C	?
CCn1c(SCC(=O)c2ccc(Cl)cc2)nnc1C(C)C	-7%
CCOc1ccccc1C(=O)Nc1ccc2nc(N3CCN(c4ncccn4)CC3)cc(C)c2c1	-3%
O=C(Nc1cc(C(F)(F)F)ccc1N1CCOCC1)c1ccc2ccccc2n1	5%
CCn1c(=O)c2c(n3cnnc13)-c1ccccc1CC21CCCCC1	-18%
Cc1nc2ccc3nc(NC(=O)C4COc5ccccc5O4)sc3c2s1 (stereo not drawn)	1%

# (more compounds)
SMILES	HSD17B inh
CCOCCCNCC(=O)NC1(C)C2CCC(C2)C1(C)C (stereo not drawn)	6%
CC(C)(C)c1ccc(O)c(CN(Cc2cc(C(C)(C)C)ccc2O)c2ccccc2)c1	-2%[11.4 µM]
CCCCc1cc(=O)oc2cc(OCC(=O)N(CC)CC)c(Cl)cc12	32µM*
CCOc1ccc(OCC)c(NC(=O)CNS(=O)(=O)c2cccs2)c1	11%
CCc1cc(=O)oc2cc(OCC(=O)N3CCc4ccccc43)ccc12	25µM*
CC(=O)N1CCC2(CCN(Cc3ccc(C#N)cc3)CC2)CC1	6%
COC(=O)[C@@]1(Cc2ccc(F)cc2)[C@H]2c3cc(C(=O)N(C)C)n(Cc4c(CO)[nH]cc(C)c4=O)c3C[C@H]2CN1C(=O)c1ccccc1	4%
Cc1cc(=O)n2nc(-c3ccccc3)sc2n1	32µM*
O=C(NC1CCCC1)C1c2ccccc2C(=O)N1CCCN1CCOCC1 (stereo not drawn)	1%
Cc1cc(OCCN2CCCC2)ccc1C(C)C	4%
Cc1ccc(S(=O)(=O)Nc2cccc(-c3cn4ccsc4n3)c2)cc1	-3%
CCOC(=O)C1CCN(C(=O)CSCCSCC(=O)N2CCC(C(=O)OCC)CC2)CC1	3%
CC(C)CCNC(=O)CN(Cc1ccc2c(c1)OCO2)C(=O)CCC(=O)Nc1ccccn1	-1%
Cc1ccccc1NC(=O)Cn1c(=O)n(C)c2ccccc21	-4%
NNC(=O)CNc1cccc(Br)c1	9%[11.4 µM]

# Following part.
SMILES	HSD17B inh
Cc1ccc(-c2nc(=S)c3c(n2CCN2CCOCC2)CC(C)(C)OC3)cc1	-13%
COc1ccc(NCc2nnc(SCC(=O)Nc3cccc(C)c3)o2)cc1	-10%
CCOC(=O)NC1(C(F)(F)F)N=C(c2ccccc2)NC1=O (stereo not drawn)	3%
O=C(C1=C(O)C(=O)N(CCN2CCOCC2)C1c1ccccc1)c1cccs1 (stereo not drawn)	-18%
Fc1cccc(C2CC(c3cccc(Br)c3)Nc3nnnn32)c1 (stereo not drawn)	7%
CCn1c(Cc2ccc(OC)cc2)nnc1SCC(=O)Nc1nc2ccccc2s1	10%
CC1CN(C(=O)Cc2ccc(-c3ccccc3)cc2)CC(C)O1 (stereo not drawn)	0%
COc1ccc(CCNC(=O)CN2CCCc3ccccc32)cc1OC	7%
CC(CCC(=O)O)C1CCC2C3CC[C@H]4CC(O)CC[C@@]4(C)C3C=C[C@]12C (stereo partly drawn)	-3%
Cc1ccccc1Cn1nc(C)c(NC(=O)c2noc3c2CC(C(C)(C)C)CC3)c1C (stereo not drawn)	9%
COc1ccc(Cl)cc1NC(=O)c1nc2nc(C)cc(C(F)F)n2n1	7%
O=c1c(-c2ccc(O[C@@H]3O[C@H](CO)[C@@H](O)[C@H](O)[C@H]3O)cc2)coc2cc(O)cc(O)c12	-11%
COC(=O)N1CCC2(CCN(Cc3ccccc3OC)CC2)CC1	-5%
O=C(CCNS(=O)(=O)c1cccs1)N1CCc2ccccc2C1	-3%
COC(=O)C1=C(C)N(Cc2ccccc2)C2=C3C(=O)CCCC3[C@@](O)(C(=O)OC)C(=O)N2C1c1ccccc1 (stereo partly drawn)	3%&-3%[11.4 µM]

# Screens: PubChem, National Center for Advancing Translational Sciences (NCATS)
